SARS PLpro yeast: SARS-CoV PLP inhibition in yeast; S. cerevisiae expressing SARS-CoV PLpro, growth rescue; control for the full effect not named in the record; Potency, µM (highest dose often 32.9 µM), for inactives: at the top dose activity, positive = growth rescue; AID 485353; 0.19% of 330,000 active; active means well fitted rising curve with a large enough effect; inconclusive means small, poorly fitted or top-dose-only effect; inactive means no such curve, though single readings can be large or run the other way; also: 0% is about no effect; nearly all actives have a fitted effect of over 55% in size; growth read by luminescence after 48 h
StopGo reporter: FMDV 2A StopGo reporter, luciferase signal; human cells with a luciferase reporter of 2A StopGo recoding; control for the full effect not named in the record; Potency, µM (highest dose often 57.9 µM), for the others: top-dose signal change, negative = less light; AID 1159524; 1.2% of 410,000 active; active = well fitted falling curve with a large enough effect; inconclusive = small, poorly fitted or top-dose-only effect; inactive = no such curve, though single readings can be large or run the other way; tested in HEK293T cells; also: % is scaled to controls: 0 for no effect and ±100 for the full control effect; nearly all actives have a fitted effect of over 45% in size; luciferase light after 4 h
Marburg entry inh: blocks Marburg virus binding to or entry into cells; Marburg virus pseudotyped entry inhibition, cell reporter; control for the full effect not named in the record; about a third of the inactives were read at about 46 µM; Potency, µM (titrated, usually from 37.8 µM), inactives show at the top dose activity change, negative = inhibition, actives largely listed as inhibitors; 1.8% of 300,000 active; AID 540276; active = well fitted inhibition curve with a large enough effect; inconclusive = small, poorly fitted or top-dose-only effect, or effect the other way; inactive = flat fitted curve, though single readings scatter; tested in HEK293 cells; about a fifth of its hits are not listed in these tables; also: % is scaled to controls: 0 for no effect and ±100 for the full control effect; luciferase read-out
Lassa entry inh: blocks Lassa virus binding to or entry into cells. 1.2% of 300,000 active. Lassa virus pseudotype entry inhibition, cell reporter; control for the full effect not named in the record. Potency, µM (series often up to 37.9 µM), inactives show at the top dose activity change, negative = inhibition, actives largely listed as inhibitors; active means well fitted inhibition curve with a large enough effect; inconclusive means small, poorly fitted or top-dose-only effect, or effect the other way; inactive means flat fitted curve, though single readings scatter; tested in HEK293 cells; also: % is scaled to controls: 0 for no effect and ±100 for the full control effect; nearly all actives have a fitted effect of over 50% in size; luciferase read-out
RE007 growth inh: less growth of the S. pombe RE007 Vpr strain; S. pombe RE007 Vpr strain, BacTiter-Glo ATP luminescence, 24 h; control for the full effect not named in the record; Potency, µM (top dose mostly 92.2 µM), for the others: top-dose activity change, negative = less growth; 0.21% of 360,000 active; AID 651644; active = well fitted falling curve with a large enough effect; inconclusive = small, poorly fitted or top-dose-only effect; inactive = no such curve, though single readings can be large or run the other way;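 also: % is scaled to controls: 0 for no effect and ±100 for the full control effect; nearly all actives have a fitted effect of over 50% in size; the assay follows cell death caused by Vpr and the record does not say whether a fall means rescue or toxicity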
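Fission yeast strain RE007, carrying one chromosomally integrated HIV-1 vpr copy, was seeded at OD 0.01 in PMG+AL medium with 23 nL pinned compound. After 24 h at 30 °C and 99% humidity, viability was read by BacTiter-Glo luminescence.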
Cruzain inh Det: blocks cruzain activity in presence of Triton detergent; P25779; purified cruzain, Z-FR-AMC fluorescence, 0.01% Triton; Potency, µM, for inactives: max response, negative = inhibition, actives largely listed as inhibitors; 0.43% of 200,000 active; AID 1478;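 also: plate controls were neutral wells for no effect and buffer without enzyme for full effect; nearly all actives have a fitted effect of over 40% in size; top concentration of the series not given in the record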
Target sequence (P25779 123-467 limits assumed): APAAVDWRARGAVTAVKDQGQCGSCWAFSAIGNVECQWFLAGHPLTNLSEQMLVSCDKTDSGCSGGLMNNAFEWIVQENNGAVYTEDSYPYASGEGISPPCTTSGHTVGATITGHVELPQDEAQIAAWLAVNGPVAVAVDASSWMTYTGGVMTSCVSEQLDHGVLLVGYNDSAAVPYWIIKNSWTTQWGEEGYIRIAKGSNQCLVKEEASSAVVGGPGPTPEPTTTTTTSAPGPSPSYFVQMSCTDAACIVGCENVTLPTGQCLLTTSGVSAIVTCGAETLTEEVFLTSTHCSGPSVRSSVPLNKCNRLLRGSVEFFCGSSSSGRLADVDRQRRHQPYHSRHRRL
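In this qHTS format, compounds are incubated with 1.5 nM cruzain for 15 min at room temperature before 2 uM Z-FR-AMC is added. Release of AMC is followed at 360/450 nm, and progress is taken as the 60 s fluorescence difference.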
Cruzain noTriton: inhibitors of Trypanosoma cruzi cruzain without detergent | 2.3% of 200,000 active | Potency, µM, for the others: max response, negative = inhibition, hits mostly inhibitors | purified cruzain, Z-FR-AMC fluorescence, no detergent | AID 1476 | P25779;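 also: plate controls were enzyme without inhibitor for no effect and buffer without enzyme for full effect; nearly all actives have a fitted effect of over 40% in size; top concentration of the series not given in the record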
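Detergent-free condition (0.00005% Triton X-100) in acetate buffer pH 5.5 with DTT. 1.5 nM enzyme and compound were pre-mixed 15 min, then 2 uM Z-FR-AMC substrate added; reaction progress from fluorescence change between first and third reads (60 s).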
NS1 function inh: inhibitors of influenza NS1 protein function; S. cerevisiae slowed by influenza A NS1, growth recovery by OD600; Potency, µM (highest dose often 46.1 µM), inactives show top-dose activity, positive = more growth; 0.4% of 270,000 active; AID 2326; active means well fitted rising curve with a large enough effect; inconclusive means small, poorly fitted or top-dose-only effect; inactive means no such curve, though single readings can be large or run the other way; also: nearly all actives have a fitted effect of over 50% in size
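OD600 was taken as the measure of yeast growth restored by compound in an NS1-expressing S. cerevisiae strain. Cells had been washed out of glucose medium and diluted 1:100 into galactose -URA medium, pH 6.0.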
Active calls of the source: *; ? = inconclusive; . = not tested or not shown; & = joins results of further samples; [ ] = another dose, or the depositor's remark. Unless noted, calls follow the shape of the dose curve; as a rule, active = well fitted curve in the direction sought with a large enough effect; inconclusive = small, poorly fitted or top-dose-only effect, or another doubt; inactive = no such curve, though single readings can be large; an effect the other way counts as inactive or inconclusive. Potency is read from the fitted curve at half-maximal effect.

SMILES | SARS PLpro yeast | StopGo reporter | Marburg entry inh | Lassa entry inh | RE007 growth inh | Cruzain inh Det | Cruzain noTriton | NS1 function inh
CCC1CCCCN1S(=O)(=O)c1ccc(NC(=O)c2nc(SC)ncc2Cl)cc1 (stereo not given) | . | -15% | ? | -24%[46.1 µM] | . | -5.6% | -8% | .
Cc1cc(C(=O)CSc2nn3c(=O)c(C(C)(C)C)nnc3s2)c(C)n1C1CC1 | -2% | -27% | -32%[46.1 µM] | 1%[46.1 µM] | 4% | . | . | 14%
COc1ccccc1CCNC(=O)Cn1ccc2cc(S(=O)(=O)N3CCCCCC3)ccc21 | . | 8% | . | -12%[46.1 µM] | . | -9.0% | 5% | .
O=C(NNC(=O)C1CCN(S(=O)(=O)c2c(Cl)cccc2Cl)CC1)c1ccccc1O | -1% | -22% | ? | -13%[46.1 µM] | 8% | . | . | .
O=C1C2C(C(=O)N1CC1CCCO1)C1C=CC2C12CC2 (stereo not given) | . | -14% | 3% | 3% | -1% | -5.6% | -12% | 9%
CCCCCC(=O)N(CN1C(=O)CCC1=O)c1ccccc1 | 0% | -3% | 12% | 4% | -7% | 1.4% | 2% | -4%
CN1CCN(c2ccc(NC(=O)C(C)(c3ccccc3)c3ccccc3)cc2)CC1 | 0% | -1% | 1% | . | -7% | . | . | -2%
COc1cccc(C2(c3cccc(OC)c3)CC2C(=O)Nc2ccccc2Cl)c1 (stereo not given) | 11% | 53%[activator] | 2% | -18% | 8% | -9.3% | -6% | -2%
Cc1[nH]c2ccccc2c1CCNCc1ccco1 | 16% | 3% | . | . | -14% | . | . | 5%
O=C(CSc1nnc(-c2ccc(C(F)(F)F)cn2)o1)Nc1ccccc1Cl | -2% | 9% | ? | 1% | 4% | . | . | 5%
Cc1ccc(S(=O)(=O)N2CCN3CCCC3C2)cc1 (stereo not given) | 8% | -1% | . | . | -9% | . | . | -6%
COc1ccc(S(=O)(=O)NCCS(=O)(=O)N2CCN(c3ccccc3)CC2)cc1 | -3% | -11% | 24%[46.1 µM] | -18% | -8% | . | . | .
CCc1cccc(NC(=O)C2CCCN2C(=O)Nc2ccc(C)cc2)c1 (stereo not given) | 0% | -7% | 7%[46.1 µM] | 2% | 6% | . | . | 0%
CCOC(=O)Cc1c(C)nc2c(-c3ccccc3)c(C)nn2c1C | -15% | 4% | -36% | -4% | 4% | -1.8% | ? | -25%
c1cncc(CSc2ccc(-c3ccc4c(c3)OCO4)nn2)c1 | -15% | 3% | ? | ? | 6% | . | . | .
COc1cccc(/C=C/c2onc(C)c2S(=O)(=O)N2CCC(C(=O)N3CCCCC3)CC2)c1 | . | -11% | . | ? | . | -6.4% | ? | .
COC(=O)c1c(NC(=O)c2ccccc2N(C)S(=O)(=O)c2ccccc2)sc2c1CCCC2 | 15% | 10% | 4.5µM* | ? | -8% | -7.3% | 25µM* | -7%
O=c1cnnc(SCc2ccc([N+](=O)[O-])cc2)[nH]1 | -7% | -11% | -2%[46.1 µM] | 3%[46.1 µM] | 15% | . | . | .
COc1cc(C(F)(F)F)ccc1C(=O)NCCc1ccco1 | -3% | 62%[activator] | . | . | 7% | . | . | -7%
Cc1cccc(OCC(=O)Nc2nnc(S(=O)(=O)N3CCCCC3)s2)c1 | 6% | -20% | . | . | 2% | . | . | 18%
COc1ccc(NC(=O)C(C)Sc2ccccc2)cc1 (stereo not given) | 0% | 14% | 3% | ? | -1% | -1.3% | 12% | -15%
Cc1ccccc1OCC(=O)NCC(=O)OCC(=O)c1ccc2ccccc2c1 | 21% | -15% | -12%&-12% | -1% | -1% | 5µM* | 10µM* | ?
CCOc1ccc(NC(=O)Cn2c(=O)cc(C)c3c(C)nn(C)c32)cc1 | . | ? | . | 0%[46.1 µM] | . | -0.8% | -4% | .
Cc1nc2c(c(=O)c3ccccc3n2C)c(=O)n1-c1ccc(F)cc1 | 0% | 38%[activator] | . | . | -14% | . | . | 3%
Cn1c(=O)[nH]c2cc(-c3noc(-c4ccc(F)cc4)n3)ccc21 | . | 37%[activator] | . | ? | . | 0.1% | 10% | .
Following part
SMILES | SARS PLpro yeast | StopGo reporter | Marburg entry inh | Lassa entry inh | RE007 growth inh | Cruzain inh Det | Cruzain noTriton | NS1 function inh
CSc1c(-c2ccccc2)nc2ccccc2c1C(=O)O | 11% | 17% | 16% | 4% | 8% | 5.5% | -2% | 20%
O=C(NCc1cccc(Cl)c1)c1ccc(CS(=O)Cc2ccccc2Cl)o1 (stereo not given) | 1% | 1%&-9% | 9%&9%[46.1 µM] | ? | -1% | -4.2% | 12% | 13%
CCCCCOc1ccc(Br)cc1CSC(=N)N | 0% | 16µM* | . | . | -26% | -3.0% | 0% | -9%
COc1ccc([N+](=O)[O-])cc1NC(=O)N(C)Cc1ccco1 | 1% | -30% | . | . | -9% | . | . | -5%
CCN1C/C(=C/c2cccs2)c2nc3ccccc3c(C(=O)O)c2C1 | -1% | 10% | 7%[46.1 µM] | -2% | -16% | . | . | 2%
Cc1ccc(NC2=NCC(=O)N2Cc2cccs2)cc1C | 0% | 31%[activator] | ? | ? | 5% | . | . | 8%
Cc1ccc(S(=O)(=O)N2CCCCC2)cc1C(=O)NCc1ccccn1 | 0% | -22% | 3%[46.1 µM] | -3% | 26% | . | . | -11%
COc1ccccc1NC(=O)c1oc2ccc(C)cc2c1C | -26% | 20% | 0% | 4% | -15% | -7.7% | -2% | -5%
O=C(CCCN1C(=O)[C@H]2CC=CC[C@H]2C1=O)NCc1nc(-c2ccc(Cl)cc2)no1 | ? | ? | . | . | 2% | . | . | -13%
CC1=CC(c2ccccc2)n2nc(N3C(=O)CCC3=O)nc2N1 (stereo not given) | 2% | -5% | 0% | 15% | 0% | -3.5% | 11% | 4%
Cc1cc(S(=O)(=O)NC2CCCCC2)ccc1OCC(=O)NCc1cccnc1 | -2% | 19% | -29% | -9% | 10% | 8.1% | 2% | 1%
CC1(C)Cc2nc3sc4c(=O)[nH]cnc4c3cc2CS1 | -1% | 1% | 20%[46.1 µM] | 9% | 8% | -6.0% | 22% | -2%
COC(=O)c1ccc(NC(=O)CCc2c(C)nc3c(c(C)nn3-c3ccc(C)cc3)c2C)cc1 | . | -17% | 9%[46.1 µM] | -9%[46.1 µM] | . | -4.9% | -8% | .
Cc1[nH]cnc1CSCCN | 4% | -10% | -5% | 4% | 4% | 3.7% | -9% | 4%
COCCN1Cc2cc3cc(C)ccc3nc2SC1=Nc1ccc(OC)cc1 | -2% | -20% | ? | ? | -20% | . | . | 0%
CN=c1scc(-c2ccco2)n1/N=C/c1ccc(O)c(O)c1 | -4% | 14µM* | ? | ? | -13% | . | . | .
CCN(CC)C(=O)CSc1ncnc2c(-c3cccs3)nsc12 | -2% | -13% | 19% | 6% | -10% | -13% | 3% | -10%
Cc1cc(=O)n(C)c(=O)n1CCCCCN1CCCC1 | 3% | -10% | -8% | -1% | 23% | 1.4% | -2% | 1%
Cc1ccc(CN2C(=O)c3ccccc3C2C(=O)NC2CCCCCC2)cc1 (stereo not given) | . | -8% | 0%[46.1 µM] | ? | . | -3.0% | 3% | .
O=C(Cc1cccc2ccccc12)NC(NC(=S)Nc1ccccc1Cl)C(Cl)(Cl)Cl (stereo not given) | 19% | -20% | 5.6µM* | ? | -11% | 1.4% | ? | 7%
COc1ccc(N(CC(=O)N2CCCC(C)C2)S(=O)(=O)c2c(C)nn(C)c2C)cc1 (stereo not given) | -1% | 7% | 0% | . | -1% | -0.3% | ? | -11%
CC(C)Nc1nc(Cl)nc(N(C#N)CN2C(=O)c3ccccc3S2(=O)=O)n1 | 1% | ? | . | . | -1% | . | . | 0%
O=C(C[n+]1ccccc1)c1ccc(NC(=O)c2ccccc2)cc1 | 1% | -5% | . | . | 3% | . | . | 2%
CC(=O)Nc1ccc(S(=O)(=O)Nc2nc(C)nc3sc4c(c23)CCC4)cc1 | 4% | -11% | . | . | -1% | . | . | -1%
COc1ccc(CCNC(=O)CN2CCN(c3cccc(C(F)(F)F)c3)CC2)cc1 | 7% | ? | -7% | -3% | 11%[3.69 µM] | -8.7% | ? | -13%
(more compounds)
SMILES | SARS PLpro yeast | StopGo reporter | Marburg entry inh | Lassa entry inh | RE007 growth inh | Cruzain inh Det | Cruzain noTriton | NS1 function inh
Cc1ccc(S(=O)(=O)NNC(=O)CCC(=O)Nc2ccccc2Cl)cc1 | -4% | 1% | . | . | 13% | . | . | 1%
CN(C)CCCNC1CS(=O)(=O)CC1O (stereo not given) | 5% | 0% | ? | -7% | 11% | 3.9% | 7% | 2%
O=C(O)CC(NS(=O)(=O)c1cccc2nsnc12)c1ccc(F)cc1 (stereo not given) | -2% | -24% | 1% | 4% | -4% | 1.9% | -12% | 1%
CC1(c2nnc(-c3ccccc3)o2)CC(c2cccnc2)=NO1 (stereo not given) | 0% | -2% | . | . | 16% | . | . | 1%
N/C(=N\OC(=O)COc1cc(Cl)c(Cl)cc1Cl)c1ccncc1 | -1% | 6% | ? | ? | 18% | . | . | .
Cc1ccc(Cn2ncc3c(N4CCN(c5ccccc5C)CC4)ncnc32)cc1 | -16% | 18µM* | ? | ? | 5% | -1.3% | -7% | -53%
CCCN1CCC(NC(=O)Cc2ccc(C)cc2)CC1 | 3% | -4% | -18%[46.1 µM] | 22%[46.1 µM] | 10% | . | . | 2%
Cc1nn(Cc2ccc(F)cc2Cl)c(C)c1[N+](=O)[O-] | 1% | -17% | ? | 3%[46.1 µM] | -15% | . | . | -2%
COc1ccc2[nH]c(=O)c(CN(C(=O)c3cccnc3)c3ccccc3C)cc2c1 | -1% | -4% | 1%[46.1 µM] | 24%[46.1 µM] | 3% | . | . | -8%
COCCCNC(=O)CNC(=S)N(Cc1cc(OC)c(OC)c(OC)c1)C1CCCC1 | 1% | -22% | 2% | ? | 16% | 3.7% | ? | 1%

No enrichment for hits; any-hit rate near 4.8%.
